Bioassay records as filed in PubChem BioAssay.
KCNQ2 pot = potentiators of rat KCNQ2 potassium channel; AID 2239; O88943; 0.54% of 310,000 active; CHO-K1 KCNQ2, FluxOR thallium flux fluorescence; stronger effect = higher value; B-score at 10 µM;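 active = fluorescence ratio B-score at least 3 SD of library B-scores, with initial fluorescence B-score within 3 SD, cut at about 5.3 in these data; same plate scores as AID 2156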;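 note: B-score of peak minus minimum over baseline fluorescence ratio after K+ and Tl+ stimulus; positive B-score means potentiation of KCNQ2 with more thallium influx and brighter signal; only the inactives scoring about 0 or higher are listed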
Target sequence (O88943 whole entry, looked up): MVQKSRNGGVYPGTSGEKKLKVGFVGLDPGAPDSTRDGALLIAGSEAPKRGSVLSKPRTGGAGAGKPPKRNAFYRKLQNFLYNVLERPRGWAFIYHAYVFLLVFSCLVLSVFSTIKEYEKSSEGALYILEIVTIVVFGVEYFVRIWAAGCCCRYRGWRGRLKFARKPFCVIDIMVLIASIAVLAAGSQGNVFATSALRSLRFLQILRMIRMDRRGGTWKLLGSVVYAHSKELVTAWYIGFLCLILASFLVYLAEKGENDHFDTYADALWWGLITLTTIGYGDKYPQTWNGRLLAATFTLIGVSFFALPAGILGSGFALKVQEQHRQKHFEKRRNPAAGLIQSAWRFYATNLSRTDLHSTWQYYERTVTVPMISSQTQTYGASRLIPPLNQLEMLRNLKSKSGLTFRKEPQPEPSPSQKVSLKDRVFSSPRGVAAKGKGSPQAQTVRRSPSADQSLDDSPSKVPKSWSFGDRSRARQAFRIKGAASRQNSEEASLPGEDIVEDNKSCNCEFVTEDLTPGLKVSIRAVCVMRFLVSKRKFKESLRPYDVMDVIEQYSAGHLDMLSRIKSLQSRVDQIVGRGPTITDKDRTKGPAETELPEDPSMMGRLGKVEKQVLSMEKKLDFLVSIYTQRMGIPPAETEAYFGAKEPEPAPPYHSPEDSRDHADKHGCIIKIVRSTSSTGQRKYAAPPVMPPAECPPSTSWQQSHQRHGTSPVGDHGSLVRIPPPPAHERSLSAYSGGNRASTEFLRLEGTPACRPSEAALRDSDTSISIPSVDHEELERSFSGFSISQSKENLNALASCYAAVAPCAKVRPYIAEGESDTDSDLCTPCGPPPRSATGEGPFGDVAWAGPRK
KCNQ2 pot baseline = further read-out of KCNQ2 pot, marked with its call; B-score; compound at 10 µM; measured here: initial fluorescence intensity artifact check;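 brightness before thallium and not channel activity; 0 = typical well and far values either way flag optical interference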
Active calls of the source: *. Some of the compounds tested; count on the stated rates, not on these rows.

canonical_smiles	KCNQ2 pot	KCNQ2 pot baseline
CCC(=O)N1CCc2cc(S(=O)(=O)NCCC(=O)NC3CCCc4ccccc43)ccc21 (configuration not stated)	2.1	-0.12
O=Cc1c(N2CCN(c3ccccc3)CC2)nc2ccccn2c1=O	2.1	0.12
Cc1cccnc1NC(=O)c1cccc(S(=O)(=O)NCc2ccccc2)c1	0.08	-1.1
Cn1c2ccccc2c(=O)c2cc(C#Cc3ccccn3)ccc21	1.9	1.7
Cc1ccc(NC(=O)C2C(=O)N(C)c3ccccc32)cc1 (configuration not stated)	1.2	0.08
Cn1cnnc1SCc1ccccc1Br	0.9	1.9
CCCCc1cc2c(cc1NC(=O)CN1CCCCC1)OCCO2	4	1.3
O=C(COc1ccccc1)NC(=S)Nc1ccc2c(c1)Cc1ccccc1-2	1.7	0
CC(C)(C)c1ccc(C(=O)NCCn2c(N)c(C#N)c3nc4ccccc4nc32)cc1	1.8	-0.27
Cc1ccc(C2C(C#N)=C(N)N(c3cccnc3)C3=C2C(=O)CCC3)c(C)c1 (configuration not stated)	1.1	-0.01
O=C(Nc1cccc(C(=O)O)c1)/C(=C\c1ccccc1)NC(=O)c1ccccc1Cl	0.34	-0.9
O=[N+]([O-])c1ccc(C(O)C23CN4CN(CN(C4)C2)C3)cc1 (configuration not stated)	0.37	-1.1
COCCNC(=O)C(c1ccco1)N(Cc1ccc(OC)cc1)C(=O)Cn1nnc2ccccc21 (configuration not stated)	0.65	1.6
CCOC(=O)CSc1nc2c(c(=O)n(C)c(=O)n2C)n1Cc1ccccc1F	0.45	-3.5
COC(=O)c1ccc(NC(=S)NC2CC2)cc1	0.73	-0.59

Record cards, from the list above:
Results for Cc1ccc(NC(=O)C2C(=O)N(C)c3ccccc32)cc1 (configuration not stated) → KCNQ2 pot = 1.2; KCNQ2 pot baseline = 0.08
Results for O=[N+]([O-])c1ccc(C(O)C23CN4CN(CN(C4)C2)C3)cc1 (configuration not stated) → KCNQ2 pot = 0.37; KCNQ2 pot baseline = -1.1

The results go on.
canonical_smiles	KCNQ2 pot	KCNQ2 pot baseline
COc1ccc(OC(=O)Nc2ccc([N+](=O)[O-])cc2OC)cc1	1.4	-1.5
O=C(COc1ccc(Br)cc1)Nc1ccc([N+](=O)[O-])cn1	0.94	0.25
C=CCn1c(Cc2c[nH]c3ccccc23)n[nH]c1=S	0.42	-1.7
Cc1nn(-c2ccccc2)c(Cl)c1/C=N/NC(=O)c1[nH]ncc1Br	0.12	0.21
O=C(Nc1ccccn1)Nc1ccccc1Cl	1.1	-0.21
CC(C)Oc1snc(Cl)c1C(N)=O	0.1	0.06
O=C(Nc1ccc2c(c1)OCCO2)C1CCN(C(=O)c2ccccc2)CC1	0.67	-0.05
CCCCOc1ccc(C(=O)Nc2cc(C)c(OCC(=O)N3CCOCC3)c(C)c2)cc1	0.24	-2.6
COc1ccc(S(=O)(=O)NC(CC(=O)NC2CCCC2)c2ccco2)cc1 (configuration not stated)	1.7	-0.01
CCOC(=O)CSc1nc(C)c(Oc2ccc(Cl)cc2Cl)c(=O)[nH]1	0.11	-0.32
Cc1sc(NC(=O)CN2C(=O)NC3(CCCC3)C2=O)nc1-c1ccc(F)cc1	0.31	-1.8
CCOc1cccc(-c2nnc3sc(COc4ccccc4)nn23)c1	0.85	-0.78
Cc1ccc(CSc2n[nH]c(N)n2)cc1	0.06	-0.22
COc1cccc(C2c3c(oc4ccccc4c3=O)C(=O)N2c2ccccn2)c1 (configuration not stated)	1.4	-1.8
O=C(NC1CCCCC1)C(c1cccnc1)N(C(=O)CCl)c1cccc(Cl)c1 (configuration not stated)	0.83	0.07
Cc1cc(C)n2nc(NCc3ccccc3)nc2n1	0.6	-0.29
C/C(=N\NC(=O)c1csc(C)c1C)c1ccco1	0.34	-1.8
CCc1ccc(NC(=O)C(C)OC(=O)CC(NC(C)=O)c2ccccc2)cc1 (configuration not stated)	0.28	0.74
Clc1cccc(Cl)c1-c1nnc2ccc(N3CCOCC3)nn12	0.35	-0.3
Cc1cccc(-n2cc3c(=O)n(C)c(=O)n(C)c3c2)c1	2.3	-0.12
O=[N+]([O-])c1ccc(OCCN2CCCCCC2)cc1	1.2	-1.3
Cn1c(SCc2nc3ccccc3[nH]2)nnc1-c1cnccn1	1.7	0.22
CC1=C(C(=O)OCc2ccccc2)C(c2cccc([N+](=O)[O-])c2)NC(=O)N1 (configuration not stated)	0.99	-0.51
CC(=O)c1cc2c(cc1NC(=O)C1CC=CCC1C(=O)O)OCO2 (configuration not stated)	0.02	-0.18
CC(Nc1nc2ncn(Cc3ccccc3)c2c(=O)[nH]1)C(=O)O (configuration not stated)	1.2	0.11
CC(C)CN(C(=O)Cn1nnc(-c2ccc(F)cc2)n1)C1CCS(=O)(=O)C1 (configuration not stated)	0.79	-0.3
Cc1ccc(/C=N/NC(=O)c2nnn(-c3nonc3N)c2CSc2ccc(Cl)cc2)o1	1.2	0.05
CCOc1ccc(NC(=O)N2CCN(CC)CC2)cc1	2.4	0.04
CC(C)c1ccc(OCC(=O)NCc2n[nH]c(=O)c3ccccc23)cc1	1.3	-0.1
COc1ccc(S(=O)(=O)N2CCN(C(=O)CNC(=O)c3ccc4c(c3)OCO4)CC2)cc1	1.4	-1.5
COCCn1c(SCC(=O)N2CCCC(C)C2)nnc1-c1ccco1 (configuration not stated)	0.76	0.02
CN(Cc1ccccc1)C(=O)CN(C)S(=O)(=O)c1ccc(F)cc1	0.27	-0.12
COc1cccc(CNC(=O)C2CCN(S(=O)(=O)c3ccc(-n4cnnn4)cc3)CC2)c1	2.3	-0.23
COCc1cc(C)nc(OCC(=O)N/N=C/c2ccccc2O)c1C#N	0.79	-1
O=C(NCc1ccccc1)c1ccc(S(=O)(=O)C(F)F)cc1	0.04	0.81
O=C(CN(C(=O)CCC(=O)Nc1nccs1)c1ccccc1F)NCCc1ccccc1	0.77	1.3
CCOC(=O)Cn1c(-c2cccnc2Cl)nc2ccccc21	2.1	-1.8
COc1cc(NS(=O)(=O)c2ccc3c(c2)n(C)c(=O)n3C)cc(OC)c1	0.4	-1.6
CC(NC(=O)CCNC(=O)c1ccco1)c1ccc(F)cc1 (configuration not stated)	0.14	-1.1
COc1ccc(C(=O)CCC(=O)Nc2cccnc2)cc1	0.48	-2.3
CCOC(=O)C1=C(COC(=O)c2cc(Br)c(Br)s2)NC(=O)NC1C (configuration not stated)	1.4	-0.98
CN(c1ccccc1)S(=O)(=O)c1cccc(NC(=O)Nc2ccc(Cl)cc2C#N)c1	0.84	-0.76
CCOC(=O)CSc1ccc(C(=O)NCCN2CCOCC2)cc1[N+](=O)[O-]	0.2	-1.1
CCn1c(SCC(=O)Nc2oc(-c3ccccc3)c(-c3ccccc3)c2C#N)nnc1-c1ccco1	0.07	0.11
O=C(Cn1cnc2ccccc2c1=O)Nc1cccc(-c2nnc3n2CCCCC3)c1	0.18	0.03
O=c1c2ccccc2c(=O)n2n1Cc1ccccc1C2	0.6	0.85
CC(C)(C)C1CCC(=NNC(=O)c2ccccc2-n2cccc2)CC1 (configuration not stated)	0.86	-1.6
Cc1c(/C=N/NC(N)=O)c2ccccn2c1C(=O)c1ccncc1	1.2	-1.4
Nc1nc(-c2ccc(Br)cc2)cs1	0.52	-0.18
CC1(C)CC2CC(C)(CN2S(=O)(=O)c2cccc(C(=O)OCC(=O)NC(N)=O)c2)C1 (configuration not stated)	1.8	-2.4
CCCCn1c(-c2cccs2)nc2nc3ccccc3nc21	0.01	-0.65
COc1ccc(CCNC(=O)CN2C(=O)c3ccccc3S2(=O)=O)cc1OC	0.13	-0.61
COc1ccc(CCNC(=O)c2cnc3n(c2=O)CCS3)cc1OC	0.48	-2.2
Cc1nn(-c2ccccc2)c(Cl)c1C(=O)Nc1ccc(N2CCOCC2)cc1	1.7	-2.6
O=C(/C=C/c1ccccc1)NCC1(c2ccccc2)CCOCC1	0.04	0.81
CCOc1cc(/C=N/Nc2cccc(C(=O)O)c2)ccc1OC(=O)c1ccccc1	3.3	-0.57
COc1ccc(-n2ncc(C(C)NS(=O)(=O)c3ccc(C(C)=O)cc3)c2C)cc1 (configuration not stated)	1.4	-0.62
Cc1ccc(S(=O)(=O)N(C)c2ccc(OCC(=O)Nc3cccc(-n4cnnn4)c3C)cc2)cc1	0.05	-0.22
COc1ccccc1CNC(=O)CCNS(=O)(=O)c1cc(Br)cnc1N	2.8	-0.36
CC(/C=C/c1ccccc1)=N/O	0.04	1.1

(continued)
canonical_smiles	KCNQ2 pot	KCNQ2 pot baseline
Cc1ccc(N=Nc2ccc(O)c3ncccc23)cc1C	2.8	0.29
CSCC(=O)N1CCCC(CO)(Cc2ccccc2C)C1 (configuration not stated)	1.4	-1.7
O=C(NC1CCCCC1)c1ccc(CNc2c(N3CCOCC3)c(=O)c2=O)cc1	0.18	-0.05
COc1cc(C(CCN2CCCC2)c2c(OC)cc(OC)c3c(C)cc(=O)oc23)cc(OC)c1OC (configuration not stated)	1.2	-1.6
CC1CCCCC1NC(=O)COC(=O)c1ccc(S(=O)(=O)N2CCOCC2)cc1 (configuration not stated)	0.01	1.8
CC(=O)c1c(C)c(C)c2n1CCn1c(C)ccc1-2	0.13	-0.64
COc1cc(OC)c(NC(=O)CCNC(=O)Cn2cnc3ccccc3c2=O)cc1Cl	0.54	0.74
COCCNc1nc(Cl)c(C#N)s1	0.02	1.5
CC1CCN(C(=O)C2CCN(S(=O)(=O)c3ccc(-n4cnnn4)cc3)CC2)CC1	0.95	0.04
CN(C(=O)Nc1ccc(Cl)cc1)n1cnc2ccccc2c1=O	0.05	-0.7
O=C(Cc1cccc2ccccc12)Nc1ccc(Br)cc1C(=O)O	1.7	-2.9
Cc1cc(C)n(CCCNC(=O)c2ccc(S(=O)(=O)NCc3ccco3)cc2)n1	0.26	1.6
O=C(CNC(=O)c1ccc(Br)o1)Nc1cccc(-c2cnc3ccccc3n2)c1	3	0.53
Cc1ccc(C(=O)NCC(=O)OCc2nnc(-c3ccccc3)o2)cc1	1.3	-1.2
Cc1nn(-c2ccccc2)c(=O)c2ccccc12	0.02	-0.52

Gathered by group, those above containing a tert-butyl group.
canonical_smiles	KCNQ2 pot	KCNQ2 pot baseline
CC(C)(C)c1ccc(C(=O)NCCn2c(N)c(C#N)c3nc4ccccc4nc32)cc1	1.8	-0.27
CC(C)(C)C1CCC(=NNC(=O)c2ccccc2-n2cccc2)CC1 (configuration not stated)	0.86	-1.6

Other entries.
canonical_smiles	KCNQ2 pot	KCNQ2 pot baseline
COC(=O)c1sccc1-c1ccc(/C=N/OC(=O)c2ccccc2)o1	0.19	-3
CCOC(=O)c1cnc(SC2CC(=O)N(c3ccc(OC)c(OC)c3)C2=O)nc1N (configuration not stated)	1.9	1.4
Cc1ccc2cccc(SCC(=O)NCc3ccco3)c2n1	1.3	-0.4
CN1CCCN(Cc2ccc(Cl)cc2Cl)CC1	0.95	0.38
CCOC(=O)c1nnn(CC(=O)N2N=C(c3ccc(Cl)cc3)CC2c2ccccc2)c1C(=O)OCC (configuration not stated)	0.72	0.25
COc1ccccc1N1CC=C(c2cccc([N+](=O)[O-])c2)NC1=O	0.14	-1.5
CC(=O)NCCC(=O)Nc1cc(S(=O)(=O)Nc2ccc(Cl)cc2)ccc1N1CCCC1	1.2	-0.43
COCCCN1C(=O)/C(=C\c2cccs2)C(C(=O)OC)=C1C	0.07	-1.9
O=C(Cc1ccccc1)Nn1c(-c2ccccc2F)nc2ccccc2c1=O	9.4*	1.1*
CCOc1ccc(C(=O)CCC(=O)NNC(=O)c2ccncc2)cc1	0.01	2.1
Cc1ccc(C2C3=C(CCCC3=O)Nc3c2c(C)nn3-c2ccccn2)o1 (configuration not stated)	0.15	-0.56
Nc1cnc(-c2ccccc2)nc1Cl	1.5	-0.07
Cc1ccc(-c2csc3ncn(CC(=O)OC(C)C)c(=O)c23)cc1	0.59	0.05
O=C(CC(Nc1ccc(F)cc1)C(=O)O)c1ccccc1 (configuration not stated)	1.3	-0.5
COc1ccc(OCC(=O)Nc2cc(NC(=O)c3ccco3)ccc2OC)cc1	0.48	-0.04
CCS(=O)(=O)n1nc(NCc2cccc(OC)c2)nc1NCc1cccc(OC)c1	15*	-1.4*
Cc1nnc(SCC(=O)NCc2ccccc2)s1	0.14	-1.8
CC(C)(C)c1nnc2sc(SCC(=O)c3ccc4c(c3)OCCO4)nn2c1=O	1	0.34
COc1ccc(-c2ccccc2)cc1NCc1ccc(OC)c(OC)c1	0.24	0.11
CCCc1nnc(NC(=O)CN2C(=O)c3ccccc3S2(=O)=O)s1	0.02	0.75
COC(=O)c1ccccc1C(=O)N1CCCC(CNC(=O)c2ccc(F)cc2)C1 (configuration not stated)	0.83	0.86
CCOC(=O)N1CCN(c2cc(NCCO)c([N+](=O)[O-])c3nonc23)CC1	1.2	3.2
Cc1nc2ccc(Br)cn2c1C(=O)N/N=C\c1ccc(C(C)C)cc1	0.54	0.02
Cc1cccc([C@@H]2[C@@H]3C(=O)N(Cc4ccccc4)C(=O)[C@@H]3[C@]3(Cc4ccc(Cl)cc4)C(=O)N(c4ccccc4)C(=O)N23)c1	0.52	-0.14
CCc1nc(SCC(=O)NCc2ccc(F)cc2)c2c(=O)n(C)c(=O)n(C)c2n1	0.57	-1.1
CCC(C)n1c(SCC(=O)Nc2ccc3[nH]c(=O)[nH]c3c2)nc2ccccc2c1=O (configuration not stated)	1.6	-0.41
Cn1nnc2sc3c(c2c1=O)CCCC3	1.1	-0.48
